# KCNQ2 inh: KCNQ2 potassium channel inhibitors, primary screen, cell-based, CHO-K1, FluxOR thallium flux, B-score (AID 2156); 20 min; stronger effect = lower value; only compounds with negative scores are shown here; some inactives read as strong as hits; B-score at 10 µM; 1.1% of 310,000 active;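 active means fluorescence ratio B-score at most minus 3 library SDs, with starting brightness B-score within 2 library SDs, cut at about -5.5 in these data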
# Target sequence (O88943 whole entry, looked up): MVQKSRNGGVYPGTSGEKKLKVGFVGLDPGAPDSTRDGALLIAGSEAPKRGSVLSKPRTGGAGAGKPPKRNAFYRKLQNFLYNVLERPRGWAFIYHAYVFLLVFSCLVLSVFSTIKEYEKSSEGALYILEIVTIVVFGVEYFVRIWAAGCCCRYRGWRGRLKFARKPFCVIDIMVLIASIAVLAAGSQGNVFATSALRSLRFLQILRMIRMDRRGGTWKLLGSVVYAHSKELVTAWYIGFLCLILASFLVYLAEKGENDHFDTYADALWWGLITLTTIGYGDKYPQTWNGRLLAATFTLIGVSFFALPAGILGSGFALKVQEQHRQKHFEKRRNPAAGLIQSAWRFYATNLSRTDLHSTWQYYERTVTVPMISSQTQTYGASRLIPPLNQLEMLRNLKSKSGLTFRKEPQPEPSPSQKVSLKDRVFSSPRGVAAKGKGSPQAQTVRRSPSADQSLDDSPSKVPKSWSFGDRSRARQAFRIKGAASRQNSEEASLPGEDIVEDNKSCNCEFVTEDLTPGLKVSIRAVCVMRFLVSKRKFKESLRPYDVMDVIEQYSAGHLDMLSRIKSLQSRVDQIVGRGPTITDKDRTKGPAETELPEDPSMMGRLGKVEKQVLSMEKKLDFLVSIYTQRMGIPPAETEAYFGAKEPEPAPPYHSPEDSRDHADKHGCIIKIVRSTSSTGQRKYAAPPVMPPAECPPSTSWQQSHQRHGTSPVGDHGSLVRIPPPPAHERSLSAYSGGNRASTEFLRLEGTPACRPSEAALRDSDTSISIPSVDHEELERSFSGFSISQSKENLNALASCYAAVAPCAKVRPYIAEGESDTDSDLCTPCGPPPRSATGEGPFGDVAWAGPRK
# KCNQ2 inh baseline: second read-out of KCNQ2 inh, no call of its own (marks repeat the call); B-score; measured here: initial fluorescence intensity artifact check;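 brightness before thallium and not channel activity; 0 = typical well and far values either way flag optical interference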
# * hit, by the source's call; i = inactive. The list is partial; rates above refer to the full screens.
No.	compound	KCNQ2 inh	KCNQ2 inh baseline
1	COCCNC(=O)CSc1nc2sc(C)c(C)c2c(=O)n1-c1ccccc1	i	-0.54
2	CN(C)CCNC(=O)COc1cccc(Cl)c1	i	-1.2
3	O=[N+]([O-])c1cccc(-c2nc(-c3ccncc3)no2)c1	i	-0.78
4	Cc1ccccc1-c1nc(CS(=O)(=O)CC(=O)N2CCc3ccccc3C2)c(C)o1	i	-0.01
5	CCS(=O)(=O)CCSc1nc2c(cc1C#N)CCCC2	i	-0.89
6	CC(=O)Nc1c(C(=O)N2CCCCCC2)cnn1-c1ccccc1	i	0.04
7	CC(=O)Nc1ccc(CN2CCCC(CCC(=O)NCc3ccccc3F)C2)cc1 (stereo not given)	i	-0.29
8	CC(C)c1ccc(C(C(=O)NC2CCCCC2)N(C(=O)c2csnn2)C2CC2)cc1 (stereo not given)	i	-1.3
9	COC(=O)[C@@H](NC(=O)NCc1cccs1)C(C)C	i	-0.7
10	Cc1c(C(=O)O)sc2nc3n(c(=O)c12)CCC3	i	-1.8
11	COc1ccccc1OCc1ccc(C(=O)N2CCN(C)CC2)o1	i	1.5
12	NC(=O)COC(=O)c1ccc2c(c1)C(=O)N(Cc1ccco1)C2=O	i	-1.1
13	O=C(c1ccc(CNc2c(N3CCCC3)c(=O)c2=O)cc1)N1CCc2ccccc2C1	i	0.5
14	CC(C)COP(=O)(OCC(C)C)C(Nc1ccccc1)c1ccc(F)cc1 (stereo not given)	i	1.5
15	COc1ccc(Oc2ccccc2/C=C/C(=O)O)cc1	i	0.06
16	CC(=O)c1sc(NC(=O)CCCOc2ccc(Cl)cc2)nc1C	i	-0.9
17	NC(=O)CC(NC(=O)Cc1cccc2ccccc12)c1ccc(NCc2ccccn2)c([N+](=O)[O-])c1 (stereo not given)	i	-0.91
18	Cc1nc(CC(=O)NNS(=O)(=O)c2ccc(F)c(Cl)c2)cs1	i	2
19	Cc1ccc(NC(=O)c2sc(N)nc2-c2ccc([N+](=O)[O-])cc2)c(C)c1	i	0.51
20	CC1Oc2ccccc2N(Cc2ccccc2F)C1=O (stereo not given)	i	-0.74
21	Cc1ccc2[nH]c(=O)c(CN(CC3COCCO3)C(=O)Nc3ccccc3C)cc2c1 (stereo not given)	i	-0.29
22	O=C(NC1(C(F)(F)F)N=C(c2ccccc2)NC1=O)c1ccccc1 (stereo not given)	i	-0.4
23	CCOC(=O)CC(=O)CSc1nc(N)c(C#N)c(-c2ccc(F)cc2)c1C#N	i	-0.96
24	COc1ccccc1OCCNC(=O)C(c1ccccc1)c1ccccc1	i	1.4
25	CC1(C)OC(=O)N(c2ccccn2)C1(C)O (stereo not given)	i	-0.85
26	Cc1cccc(NC(=O)c2sc(NC(=O)c3ccco3)c(C#N)c2C)c1C	i	-1.1
27	C/C(CC(=O)Nc1cccc(Cl)c1Cl)=N\NC(=O)C(=O)NC1CCCCC1	i	-0.89
28	COc1ccc(C2/C=C\CN(C(=O)C3CC3)[C@H](Cc3ccccc3)C(=O)N2Cc2ccc(F)cc2)cc1 (stereo not given in full)	i	3.7
29	O=C(CCn1c(=O)[nH]c2ccccc2c1=O)N1CCN(c2cccc(C(F)(F)F)c2)CC1	i	0.76
30	CC(=O)NC(NC(=S)Nc1ccc(S(N)(=O)=O)cc1)C(Cl)(Cl)Cl (stereo not given)	i	0.01
31	O=S(=O)(CCc1ccccc1)N1CCOCC1	i	0.54
32	COc1ccc(CNC(=O)COC(=O)c2cc(-c3cccs3)nc3ccccc23)cc1OC	i	-0.59
33	C=CCNC(=S)Nc1cc(C)ccn1	i	-0.29
34	CN(Cc1c(F)cccc1Cl)c1ccc(S(=O)(=O)N2CCOCC2)cn1	i	-0.73
35	Cc1onc(-c2ccccc2Cl)c1C(=O)Nc1nc2c(s1)CCCC2	i	-0.52
36	CCSc1ncc(Cl)c(C(=O)Nc2ccccc2F)n1	i	-2.4
37	Cc1cccc(NC(=O)N2CCCC2C(=O)NCc2ccccc2)c1 (stereo not given)	i	-1.1
38	COc1ccc(C2=NN(C(=S)Nc3ccccc3)C(c3ccccc3)C2)cc1 (stereo not given)	i	-0.05
39	Cc1cc(N2CCCC2=O)ccc1S(=O)(=O)Nc1c(C)nn(C)c1C	i	1.2
40	CC1=C(C(=O)Nc2ccccc2C)C(c2ccccc2)NC(=O)N1 (stereo not given)	i	-0.65
41	CCNC(=O)C(=O)N/N=C/c1cc([N+](=O)[O-])ccc1O	i	2.1
42	C/C(=N\NS(=O)(=O)c1ccc([N+](=O)[O-])cc1)c1ccc2c(c1)OCO2	i	0.38
43	CCOc1ccc(C(=O)CCc2nc3ccccc3s2)cc1	i	0.2
44	Cc1cc(=S)cc(C)n1CCCn1ccnc1	i	-0.01
45	COC(=O)C(/C=N/OCc1ccc([N+](=O)[O-])cc1)NC(=O)c1cccc(Cl)c1 (stereo not given)	i	0.68
46	CC(NC(=O)CCn1nc(-c2ccc(Cl)cc2)ccc1=O)c1ccccc1 (stereo not given)	i	0.89
47	COC(=O)c1c(NC(=O)COC(=O)CC(NC(C)=O)c2ccccc2)sc(C)c1C (stereo not given)	i	0.83
48	Cc1ccccc1NC(=O)Cc1nnc(SCC(=O)Nc2ccccc2)n1C	i	-0.12
49	CC(C)(C)OC(=O)[C@H]1[C@H](c2ccc([N+](=O)[O-])cc2)C2(C(=O)c3ccccc3C2=O)C2c3ccccc3C=NN21 (stereo not given in full)	-6.1*	-0.22*
50	CCN1CCN(S(=O)(=O)c2cc(C(=O)O)ccc2Cl)CC1	i	-0.07

# Next section, overlapping the part above by four compounds.
No.	compound	KCNQ2 inh	KCNQ2 inh baseline
47	COC(=O)c1c(NC(=O)COC(=O)CC(NC(C)=O)c2ccccc2)sc(C)c1C (stereo not given)	i	0.83
48	Cc1ccccc1NC(=O)Cc1nnc(SCC(=O)Nc2ccccc2)n1C	i	-0.12
49	CC(C)(C)OC(=O)[C@H]1[C@H](c2ccc([N+](=O)[O-])cc2)C2(C(=O)c3ccccc3C2=O)C2c3ccccc3C=NN21 (stereo not given in full)	-6.1*	-0.22*
50	CCN1CCN(S(=O)(=O)c2cc(C(=O)O)ccc2Cl)CC1	i	-0.07
51	CCOP(=O)(OCC)C(Nc1ccccc1)c1cc(OC)ccc1OC (stereo not given)	i	-0.88
52	CC1CC(C)CN(C(=O)C2CC(=O)N(c3ccc(F)cc3)C2)C1 (stereo not given)	i	-1.4
53	COc1cc(CN2CCCCCC2)cc([N+](=O)[O-])c1O	i	1.4
54	Nc1c(C(=O)O)sc2nc(-c3ccccc3)cc(-c3ccccc3)c12	i	-1.9
55	CC12CCC(=O)N1C(C(=O)O)Cc1c2[nH]c2ccccc12 (stereo not given)	i	2.8
56	Cc1ccc(C2(C)NC(=O)N(CC(=O)Nc3cc(S(=O)(=O)N4CCOCC4)ccc3C)C2=O)cc1 (stereo not given)	i	-2
57	CCN(CC)c1ccc2cc(-c3nnc(-c4ccccc4)o3)c(=O)oc2c1	i	27
58	CCN(CC)S(=O)(=O)c1cccc(C(=O)OCC(=O)c2ccc3c(c2)NC(=O)CO3)c1	i	-0.94
59	COc1ccc(CN(C(=O)CSc2nnc(-c3ccc(F)cc3)o2)c2ccc(F)cc2)cc1	i	-2.1
60	COc1ccc(/C(=N\Nc2ccccc2C(=O)O)c2ccccc2)cc1	i	-0.33
61	N#Cc1nc(-c2ccccc2)oc1NCC1CCCO1 (stereo not given)	i	1.1
62	c1cc2c(cc1Cn1cnnn1)OCO2	i	1.9
63	COc1ccc(C(=O)NNC(=S)NC(=O)c2ccccc2)cc1	i	0.01
64	CC1=C(/C=C/C(C)=C/C=C/C(C)=C\C(=O)O)C(C)(C)CCC1	-7.7*	0.42*
65	Cc1cccc(C)c1NC(=O)NN=C1CCCCC1	i	0.44
66	O/N=C/c1ccc(OCc2ccccc2F)c(Cl)c1	i	0.83
67	CCC(=O)Nc1ccc(-c2nc3ccccc3c(=O)o2)cc1	i	0.65
68	CCOc1ccc(C(=O)COC(=O)c2cc([N+](=O)[O-])ccc2N2CCOCC2)cc1	i	1.8
69	CC(C)(C)NC(=O)NC(=O)COC(=O)c1cccc(S(=O)(=O)N2CCCCC2)c1	i	0.09
70	COC(=O)C1=C(C)OC(N)=C(C#N)C1c1cc(C)sc1C (stereo not given)	i	-1.5
71	OCC[C@H]1C[C@H](O)[C@@H](O)[C@@]2(CCCCO2)O1	i	0.98
72	COc1ccccc1S(=O)(=O)Cc1ccc(C(=O)NC(C)c2ccc3c(c2)OCCO3)o1 (stereo not given)	i	0.33
73	O=C(NC(Cc1ccccc1)c1ccc2c(c1)OCCCO2)c1ccccc1 (stereo not given)	i	-2.7
74	COc1ccc(N2CCN(S(=O)(=O)CCNC(=O)/C=C/c3ccc4c(c3)OCO4)CC2)cc1	i	1.5
75	Cc1cccc(-n2c(-c3ccoc3C)n[nH]c2=S)c1	i	0.07
76	CN(C)CCN(C(=O)c1ccc2c(c1)CCCC2)c1nc2c(F)cccc2s1	i	0.94
77	CC1CCN(C(=O)Cn2cc(C#N)c3ccccc32)CC1	i	-0.38
78	CC(C)CNC(=O)C(=O)NCc1ccccn1	i	3.1
79	Cc1ccc(CCNC(=O)C2CCN(S(=O)(=O)c3ccc4c(c3)NC(=O)CO4)CC2)cc1	i	-1.5
80	CCOc1ccc(C(=O)NCc2cccnc2)cc1[N+](=O)[O-]	i	-0.15
81	CCCCc1nc(Cl)c(C#N)c2c1CSC(C)(C)C2	i	-0.98
82	COC(C[C@@H](O)C[C@H](O)[C@@H](C)OCc1ccccc1)OC	i	-0.01
83	O=C1CC(c2ccccc2)Cc2nc(NC3CC3)ncc21 (stereo not given)	i	-0.77
84	CC(=O)Nc1ccc(SCC(=O)c2c(N)n(Cc3ccccc3)c(=O)n(C)c2=O)cc1	i	5.4
85	CNNC(=S)NCCC1=CCCCC1	i	-3.4
86	CN1CCN(C2Cc3ccc(Cl)cc3Sc3ccc(F)cc32)CC1 (stereo not given)	i	0.77
87	CCCCN(C(=O)c1cccs1)C1CCS(=O)(=O)C1 (stereo not given)	i	-0.5
88	COc1ccc(NC(=O)COC(=O)c2ncc(Cl)c(Cl)c2Cl)c(OC)c1	i	0.04
89	Cc1ccccc1N(C(=O)c1csnn1)C(C(=O)NC1CCCCC1)c1ccncc1 (stereo not given)	i	-0.05
90	Cc1ccc(N/N=C(\C#N)C(N)=S)cc1C	i	-0.5
91	Cc1nc2ccsc2c(=O)n1-c1ccc(Cl)cc1	i	-1.3
92	O=C(CSc1nnc(CNC(=O)c2ccccc2)o1)NCc1ccc(F)cc1	i	-1.9
93	CCCCN(CC)S(=O)(=O)c1ccc(C(=O)Nc2nnc(COC)o2)cc1	i	-0.32
94	CN1CCN(S(=O)(=O)c2ccc(Nc3ccc(F)cc3)nc2)CC1	i	-0.17
95	Cc1ccnc(NC(=O)c2cc(-n3cnnc3)ccc2Cl)c1	i	1.1
96	COc1cccc(Nc2nc(-c3ccc4c(c3)OCCO4)cs2)c1	i	-1.1
97	CC(C)NC(=S)NNC(=O)C12CC3CC(CC(C3)C1)C2	i	1.4
98	Cc1cc(C)n(-c2nc3ccccc3c(=O)n2OCc2ccc(F)cc2)n1	i	0.09
99	CC1SCC(=NOCc2c(Cl)cccc2Cl)CS1 (stereo not given)	i	0.79
100	O=C(CN1CCN(S(=O)(=O)N2CCCCC2)CC1)Nc1cc(Cl)cc(Cl)c1	i	0.15

# Structures above that contain an NH in an aromatic ring (four):
No.	compound	KCNQ2 inh	KCNQ2 inh baseline
21	Cc1ccc2[nH]c(=O)c(CN(CC3COCCO3)C(=O)Nc3ccccc3C)cc2c1 (stereo not given)	i	-0.29
29	O=C(CCn1c(=O)[nH]c2ccccc2c1=O)N1CCN(c2cccc(C(F)(F)F)c2)CC1	i	0.76
55	CC12CCC(=O)N1C(C(=O)O)Cc1c2[nH]c2ccccc12 (stereo not given)	i	2.8
75	Cc1cccc(-n2c(-c3ccoc3C)n[nH]c2=S)c1	i	0.07

# (listing goes on)
No.	compound	KCNQ2 inh	KCNQ2 inh baseline
101	COC(=O)c1sccc1NC(=O)c1ccc(OC)cc1OC	i	-2.2
102	N=C1/C(=C\c2ccc(-c3cccc(C(=O)O)c3)o2)C(=O)N=C2SC=C(c3ccccc3)N12	i	2.6
103	Nc1ccc(Oc2ccc(F)cc2)nc1	i	-0.6
104	Cc1c(C(=O)N2c3ccccc3Sc3ccccc32)cccc1[N+](=O)[O-]	i	0.94
105	COc1cc2[nH]c3c(=O)n(N)c(=O)[nH]c3c2cc1OC	i	0.51
106	COC(=O)c1ccccc1NC(=O)Cn1c(=O)n(Cc2ccccc2)c(=O)c2c(C)c(C)sc21	i	-0.73
107	c1ccc(Oc2ncnc3oc(-c4ccccc4)cc23)cc1	i	0.89
108	Cc1ccc(C(=O)COC(=O)CNC(=O)C(c2ccccc2)c2ccccc2)cc1[N+](=O)[O-]	i	0.09
109	Cc1ccc(S(=O)(=O)NNC(=O)c2sc(=S)n(C)c2C)cc1	i	0.78
110	CSCC(O)Cn1ncc2ccccc2c1=O (stereo not given)	i	0.02
111	Cc1cccc(N=Cc2c(O)cc(C)oc2=O)c1	i	0.98
112	CCn1cnc2c1c(=O)n(CC(=O)N1CCc3ccccc31)c(=O)n2Cc1ccccc1	i	-0.46
113	CC(C)Oc1ccc2nnnn2n1	i	-0.02
114	CC(=O)Oc1ccc(C(=O)c2ccccc2)c(OC(C)=O)c1	i	-0.43
115	C=CCNC(=O)/C(C#N)=C/c1c(N(Cc2ccccc2)Cc2ccccc2)nc2ccccn2c1=O	i	0.03
116	COc1ccc(N(C)S(=O)(=O)c2cccc(C(=O)Nc3cc(OC)ccc3OC)c2)cc1	i	-0.56
117	Clc1ccc(-c2cc(C3CCNCC3)[nH]n2)c(Cl)c1	i	-0.44
118	COc1cc(OC)cc(C(=O)NC(=S)N2CCCCC2c2cccnc2)c1 (stereo not given)	i	0.29
119	C/C(=N\NC(=O)CCc1c(C)n[nH]c1C)c1ccc([N+](=O)[O-])cc1	i	0.98

# A second format for some results above:
111: Cc1cccc(N=Cc2c(O)cc(C)oc2=O)c1
112: CCn1cnc2c1c(=O)n(CC(=O)N1CCc3ccccc31)c(=O)n2Cc1ccccc1
entry no.	111	112
KCNQ2 inh	i	i
KCNQ2 inh baseline	0.98	-0.46

# Source: PubChem
